High-throughput results from PubChem BioAssay.
KCNQ2 block – KCNQ2 channel blockers in CHO-K1 cells – cell-based, FluxOR thallium flux, B-score, primary screen (AID 2156) | 310,000 compounds, 1.1% hits | 20 min; hits give low values; only compounds with negative scores are shown here; some inactives read as strong as hits | B-score at 10 µM | O88943;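 active means fluorescence ratio B-score at most minus 3 library SDs, with starting brightness B-score within 2 library SDs, cut at about -5.5 in these data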
Target sequence (O88943 whole entry, looked up): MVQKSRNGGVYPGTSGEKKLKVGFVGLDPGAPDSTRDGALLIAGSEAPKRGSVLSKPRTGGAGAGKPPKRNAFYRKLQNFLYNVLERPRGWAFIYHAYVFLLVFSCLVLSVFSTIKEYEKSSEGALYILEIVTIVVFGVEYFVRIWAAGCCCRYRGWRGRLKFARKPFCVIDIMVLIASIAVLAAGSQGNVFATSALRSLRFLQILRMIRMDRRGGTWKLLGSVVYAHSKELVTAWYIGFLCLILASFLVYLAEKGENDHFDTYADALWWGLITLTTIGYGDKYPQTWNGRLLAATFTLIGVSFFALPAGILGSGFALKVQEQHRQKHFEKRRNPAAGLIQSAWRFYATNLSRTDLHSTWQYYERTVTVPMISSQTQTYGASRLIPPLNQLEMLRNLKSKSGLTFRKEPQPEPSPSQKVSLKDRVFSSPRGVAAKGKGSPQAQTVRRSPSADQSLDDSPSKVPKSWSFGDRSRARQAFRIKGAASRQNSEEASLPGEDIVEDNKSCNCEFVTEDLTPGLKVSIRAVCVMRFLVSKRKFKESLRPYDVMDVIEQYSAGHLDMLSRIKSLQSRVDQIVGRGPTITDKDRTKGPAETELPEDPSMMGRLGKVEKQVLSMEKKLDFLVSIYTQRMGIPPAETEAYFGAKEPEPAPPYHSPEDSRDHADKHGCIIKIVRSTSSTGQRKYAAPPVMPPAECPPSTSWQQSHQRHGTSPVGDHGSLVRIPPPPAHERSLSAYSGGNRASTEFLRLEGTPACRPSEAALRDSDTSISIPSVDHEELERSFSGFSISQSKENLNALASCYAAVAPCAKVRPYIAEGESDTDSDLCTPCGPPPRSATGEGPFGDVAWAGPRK
KCNQ2 block baseline – further read-out of KCNQ2 block, marked with its call; B-score; measured here: initial fluorescence intensity artifact check;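 brightness before thallium and not channel activity; 0 = typical well and far values either way flag optical interference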
* = called active by the depositor; i = inactive.

SMILES,KCNQ2 block,KCNQ2 block baseline
CCOC(=O)c1c(NC(=O)Cn2nnc3ccccc32)sc2c1CCC(C)C2 (configuration not stated),i,1.1
Cc1ccccc1C(=O)NCC(=O)Nc1ccccc1C(F)(F)F,i,-0.49
COc1ccc(CN2C(=O)Cc3c2nc(N)c2c(N)nc(N4CCOCC4)c(C#N)c32)cc1,i,-1.2
Cc1ccccc1N1CC(C(=O)Nc2nnc(SCc3cccnc3)s2)CC1=O (configuration not stated),i,0.57
COc1ccc(C(=O)Nc2ccc(N3CCN(C(=O)c4cccs4)CC3)cc2)cc1Br,i,-2.9
Cc1ccc(C)c(S(=O)(=O)N2CCCCC2CCNC(=O)C(=O)NCc2ccccn2)c1 (configuration not stated),i,0.45
Fc1cccc(NC(=S)NNc2c3ccccc3nc3ccccc23)c1,i,-2.1
Cn1c(=O)n(C)c2cc(/C=C3/NC(=O)N(Cc4ccccc4)C3=O)ccc21,i,0.06
CNC(=O)C(C)c1ncc(C(F)(F)F)cc1Cl (configuration not stated),i,-0.99
O=c1ccc(-c2ccc(S(=O)(=O)NCC3CCN(Cc4cccc(F)c4)CC3)s2)n[nH]1,i,0.54
O=C(O)C1CSC2c3ccccc3C(=O)N12 (configuration not stated),i,1.1
CCOc1cc(C2C(C#N)=C(N)Oc3cc(N)ccc32)ccc1O (configuration not stated),i,0.86
CSc1ccc(CNCCCSc2ncccn2)cc1,i,1.6
COc1ccc(S(=O)(=O)NC(CC(=O)NCc2ccco2)C(C)C)cc1 (configuration not stated),i,3.3
Cc1cc(=O)[nH]c(SCC(=O)N(CCC#N)c2ccccc2)c1C#N,i,2.2
C=CCN1C(=O)c2ccc(C(=O)N(C)CC(=O)Nc3ccccc3Br)cc2C1=O,i,-0.2
O=C(NCCc1cccs1)c1ccc(Cl)c(Cl)c1,i,-0.09
CCCn1c(N)c(N(CCOC)C(=O)c2ccccc2F)c(=O)[nH]c1=O,i,-0.6
NC(=O)C1CCN(CC(=O)c2c[nH]c3ccc(F)cc23)CC1,i,0.6
Cc1ccc(-c2n[nH]c(=O)c3ccccc23)cc1S(=O)(=O)Nc1ccc(F)cc1,i,1.7
CCn1c(SCC(=O)NC2CCCCC2)nnc1C(C)NC(=O)c1ccccc1F (configuration not stated),i,0.73
Cc1cccc(Oc2sc(C(=O)c3ccccc3)c(N)c2C#N)c1C,i,0.41
Cc1ccc(C(=O)CNc2ccc(F)cc2)cc1,i,-0.87
CC(C)[C@H](N)c1nnc(SC/C=C/c2ccccc2)o1,i,0.56
Cc1ccc(OS(=O)(=O)c2ccc(N3C(=O)CCC3=O)cc2)cc1,i,-0.65
Cc1cccc2cc(C3CC(c4ccco4)=NN3S(C)(=O)=O)c(Cl)nc12 (configuration not stated),i,0.03
CCOC(=O)N1CCN(S(=O)(=O)c2ccc(C(=O)Nc3nnc(CC)o3)cc2)CC1,i,-0.17
CC(C)[C@H](NC(=O)c1ccco1)C(=O)Nc1ccc(OC(F)F)cc1,i,1.3
O=C(Nc1ccc(N2CCCCCC2)cc1)c1ccccc1Cl,i,-0.26
Cc1ccc2cc(C#N)c(N3CCCC3)nc2c1C,i,-0.44
O=C(O)Cc1ccc(O)c(O)c1,i,2
Cn1nc(C(F)(F)F)c(C#N)c1N1CCN(c2ccccc2F)CC1,i,-0.67
CCC(C)COC(=O)C(C#N)c1nc2ccccc2nc1N1CCCCC1 (configuration not stated),i,0.42
C=CCn1c(CSCc2ccc(F)cc2)n[nH]c1=S,i,-1.1
COc1ccc(OC)c(NC(=O)CN(c2ccc(C(C)C)cc2)S(=O)(=O)c2c(C)noc2C)c1,i,-1.7
O=c1c2ccccc2nc(-c2ccccc2)n1CCCn1ccnc1,i,3.2
CCN(CC)S(=O)(=O)c1ccc(Oc2ccccc2OC)cc1,i,2.3
COc1cccc(N2CCN(C(=O)Cn3c(=O)oc4ccccc43)CC2)c1,i,-0.59
COc1ccc2nc(NC(=O)c3ccc4ncsc4c3)sc2c1,i,-1
CC(Sc1nnc2ccccn12)C(=O)N1CCc2ccccc2C1 (configuration not stated),i,0.89

The closing three records of the section above lead into the next.
SMILES,KCNQ2 block,KCNQ2 block baseline
COc1cccc(N2CCN(C(=O)Cn3c(=O)oc4ccccc43)CC2)c1,i,-0.59
COc1ccc2nc(NC(=O)c3ccc4ncsc4c3)sc2c1,i,-1
CC(Sc1nnc2ccccn12)C(=O)N1CCc2ccccc2C1 (configuration not stated),i,0.89
CCOC(=O)c1cc(-c2ccc(OC)cc2)n(CCC(=O)NC2CCN(Cc3ccccc3)CC2)c1C,i,-0.02
Cc1c(C)n(CC(O)CN(CCO)CCO)c2ccccc12 (configuration not stated),i,-0.67
CCn1cc(C(=O)N2CCCC(N3CCN(c4cccc(C(F)(F)F)c4)CC3)C2)cn1 (configuration not stated),i,-0.69
C#CCCCc1nc2ccccc2c(=O)n1N,i,-1
CCN(CC)c1ccc(/C=N/NC(=S)NC)c(O)c1,i,0.3
CC12CC3(C)CC(C)(C1)CC(C(=O)NCCc1ccc(S(N)(=O)=O)cc1)(C2)C3,i,1.3
O=C1CCc2cc(S(=O)(=O)N3CCC(C(=O)NCc4ccccc4Cl)CC3)ccc2N1,i,0.68
CCc1ccc(S(=O)(=O)NCc2csc(-c3ccccc3)n2)s1,i,-0.76
Cc1ccc(N2N=C(c3ccc(Br)cc3)CCC2=O)cc1,i,0.69
Cc1ccc(CNC(=O)CS(=O)CC(=O)O)cc1 (configuration not stated),i,2.2
O=C(Cc1ccc(-n2cccc2)cc1)NCc1cccs1,i,0.45
Cc1ccc(S(=O)(=O)N(CC(=O)N2CCC(C)CC2)c2cccc(C)c2)cc1,-6.2*,1.3*
Cc1ccc(C(=O)NNC(=O)c2ccncc2)cc1S(=O)(=O)N1CCCCC1,i,0.45
O=C1[C@@H]2[C@@H]3C[C@@H]([C@H]4ON=C(c5ccc(Cl)cc5Cl)[C@@H]34)[C@@H]2C(=O)N1C1CCCCC1,i,-0.08
COc1ccc(CCNC(=O)CCCn2c(=O)[nH]c3cc(OC)c(OC)cc3c2=O)cc1OC,i,0.62
Cc1csc(SCC(=O)NC(=O)C2CCCCC2)n1,i,-0.32
CCOC(=O)c1ccccc1NC(=O)c1cccc([N+](=O)[O-])c1,i,-1.4
Cc1ccc(S(=O)(=O)NNC(=O)C2CCCCC2)cc1,i,-0.34
O=C(CSc1nc2[nH]ncc2c(=O)[nH]1)c1ccc(Cl)cc1,i,2.3
CCN(CC)c1ccc(/C=N/O)cc1,i,-2.5
O=C(Oc1cccc(C(=S)N2CCOCC2)c1)c1ccc([N+](=O)[O-])cc1[N+](=O)[O-],i,-0.49
Clc1ccc(Cn2nc(-c3ccccc3)nc2-c2ccccc2)cc1,i,0.66
Cc1ccc(-c2nc(C)sc2CC(=O)O)cc1,i,0.68
COc1ccc(-c2csc(C3=C(O)CN(CCCN4CCCC4=O)C3=N)n2)cc1OC,i,1.3
Cn1c(SCC(=O)NCC2CCCO2)ncc(C(=O)Nc2ccccc2)c1=O (configuration not stated),i,0.1
Cn1c(CCN2CCCC2)nc2cc(NS(=O)(=O)c3ccc(Cl)cc3)ccc21,i,-0.34
COCCN(CCOC)c1nc(-c2ccc([N+](=O)[O-])cc2)nc2ccccc12,i,-0.02
C#CCn1c(S(=O)(=O)Cc2ccc(C)cc2)nc(-c2ccccc2)c1-c1ccccc1,i,-1.5
Cc1ccc2[nH]c3c(c2c1)CCc1cn[nH]c1-3,i,0.88
Cc1ccc(CCNC(=O)Cn2ccc3cc(S(=O)(=O)N4CCCC4)ccc32)cc1,i,-0.32
COc1cc2c(cc1OC)CN(C(=O)CNS(=O)(=O)c1ccc(C)c(C)c1)CC2,i,-0.31
CC(=O)OCc1cc(=O)n(C)c(=O)n1C,i,-0.73
O=C1c2ccccc2-c2onc3c(N4CCN(CCO)CC4)cc(N4CCN(C(=O)c5ccco5)CC4)c1c23,i,-2.1
CC(C)C(OC(=O)CN1C(=O)c2ccccc2C1=O)C(=O)NC1CCCCC1 (configuration not stated),i,0.48
CCN1CCSc2ccc(C(=O)NCc3ccccc3Br)cc21,-6.1*,0.79*
Cc1cc(=O)n2c(C(=O)Nc3ccc(C)c(C)c3)c(C(=O)Nc3ccccc3)sc2n1,i,1.8
CC1CCN(C(=O)CSc2nc(N)cc(N)n2)CC1,i,0.89
COCCOC(=O)c1c(NC(=O)CSc2cccc[n+]2[O-])sc(C(N)=O)c1C,i,-0.6
Cc1ccc(CSc2cc(C)[nH]c(=O)n2)cc1,i,-1.1
COCCCn1c(=O)c2sccc2n2c(CCCC(=O)N(C)Cc3ccco3)nnc12,i,0.22

Whole records, quoted from the list:
Cc1ccc(-c2nc(C)sc2CC(=O)O)cc1 is listed as KCNQ2 block: i; KCNQ2 block baseline: 0.68
CCN(CC)c1ccc(/C=N/NC(=S)NC)c(O)c1 is listed as KCNQ2 block: i; KCNQ2 block baseline: 0.3

Next section:
SMILES,KCNQ2 block,KCNQ2 block baseline
O=C(/C=C/c1cccs1)N1CCC2(CC1)Oc1ccc(F)cc1C(=O)C21CC(c2ccc(Cl)cc2)=NO1 (configuration not stated),i,-1.5
CCOC(=O)C1=C(C)Nc2sc(C(=O)c3ccc(Br)cc3)c(N)c2C1c1ccc(C(=O)OC)cc1 (configuration not stated),-6.6*,-0.58*
CCCCNC(=O)Cn1c(=O)n(C)c2ccccc21,i,-2.1
CNC(=O)CN(c1cc(C)ccc1OC)S(=O)(=O)c1ccc(C)cc1,i,3.9
CNC(=S)NCCc1ccc(OC)cc1,i,-1.5
Cc1ccc2sc(N3CCN(C(=O)c4ccc([N+](=O)[O-])o4)CC3)nc2c1C,i,-0.14
O=C(O)c1cccc(N/N=C/c2cccnc2)c1,i,1.7
O=C(CSc1ccc(-c2ccncc2)nn1)N1CCCC1,i,1.7
O=C(COc1ccc(Cl)cc1)NCc1cn2cc(Cl)ccc2n1,i,1.4
CC(C)Sc1nc2ccc(N3C(=O)C4CCCCC4C3=O)cc2s1 (configuration not stated),i,0.15
CCS(=O)(=O)c1nc2ccccc2n1Cc1ccccn1,i,0.84
CCOC(=O)N1CCN(Cc2nc(Cc3cccc(C(F)(F)F)c3)no2)CC1,i,1.4
Cc1ccc(C2=C(c3ccc([N+](=O)[O-])cc3)C(=O)OC2)cc1C,i,-0.8
CC(=O)c1c(C)[nH]c(C(=O)NCc2ccc(C)cc2)c1C,i,-1.3
O=C(Nc1ccc(S(=O)(=O)N2CCCCC2)cc1)C1CC(=O)N(c2ccccc2)C1 (configuration not stated),i,0.2
CN(C)C=Nc1ccc(Cl)c(Cl)c1,i,-0.52
CCc1cccc(C)c1NC(=O)c1cccc(N(C)C)c1,-6.9*,-3.2*
Cc1cccc(C)c1N(CC(=O)NCc1ccco1)C(=O)CNS(=O)(=O)c1ccc(F)cc1,i,1.6
CCCCNCC(=O)Nc1ccc(NC(=O)CNCCCC)cc1,i,-0.03
Cc1nnc(SCC(=O)Nc2ncc(Cl)cc2Cl)n1Cc1ccccc1,i,-0.1
CCOc1ccc(-n2c(SCc3ccc(C#N)cc3)nnc2-c2cccnc2)cc1,i,-0.13
S=C(Nc1ccccc1)N1CCC(C2CCN(C(=S)Nc3ccccc3)CC2)CC1,i,-1.5
CC1CCCC(NC(=O)c2ccc(F)c(S(=O)(=O)N3CCOCC3)c2)C1C (configuration not stated),i,0.65
Cc1cc(NCCCn2ccnc2)n2nc(-c3ccc(F)cc3)cc2n1,i,6
CCNc1nc(-c2ccc(Cl)cc2)cs1,i,-0.5
CCOC(=O)c1ccc(CSc2nnc(N)s2)cc1,i,0.36
CCC1CCCCN1CCCNC(=O)Cn1nc(-c2ccccc2)ccc1=O (configuration not stated),i,1
Cc1sc2nc(CN3CCOCC3)nc(Oc3ccc(NC(=O)c4ccco4)cc3)c2c1C,i,-0.43
Cc1ccc(OCCOCCNC(C)C)c(Br)c1,i,3.3
COc1ccc(CN(C)CC(=O)NC(=O)NCc2ccccc2)c(OC)c1,i,1.7
CCN(c1cccc(C)c1)C1C(=O)c2ccccc2N1C(C)=O (configuration not stated),i,0.34
O=C(CSc1nnc(COc2ccc(Cl)cc2)o1)OC1CCCCC1,i,0.74
COc1ccc(CC(=O)N[C@@H](C)C(=O)N2CCC3(CC2)NCCc2[nH]cnc23)cc1,i,-0.82
COC(=O)c1ccc(OC)c(CSc2nnc(COc3ccc(Cl)cc3)o2)c1,i,-0.14
CN(C)c1cc(NC(=O)CN2CCCC2)c2ccccc2n1,i,-0.28
COCCCNC(=O)Cn1nc(-c2ccccc2OC)ccc1=O,i,0.18
CCc1ccc(-n2c(=O)c3ccccc3n(CC(=O)C(C)(C)C)c2=O)cc1,i,0.9
COc1ccc(Cc2nnc(NC(=O)c3cc(OC)cc(OC)c3)s2)cc1,i,-0.67
O=c1c(=O)n(O)c2ccccc2n1O,i,0.27
O=C(COC(=O)c1ccc(Cl)nc1)NCc1ccco1,i,0.1
CCOC(=O)/C(C#N)=C/C1=C(N2CCCC2)CC(C)(CC)OC1 (configuration not stated),i,-2
COc1ccc(CC2SC(=Nc3ccc(F)cc3)NC2=O)cc1 (configuration not stated),i,1.1
O=c1[nH]nc(Cc2ccccn2)c2ccccc12,i,1

Some of the compounds tested (hit frequency here may not be typical).
